Screens: PubChem BioAssay, National Center for Advancing Translational Sciences (NCATS)
VACV Venus inh: qHTS for Stage-Specific Inhibitors of Vaccinia Orthopoxvirus: Venus Reporter Primary qHTS. Potency, µM (top dose mostly 36.5 µM), without a hit: top-dose activity change, negative = inhibition, most hits filed as inhibitors. AID 720580, 2013. Vaccinia virus Venus reporter expression, fluorescence. hit rate 0.46% among 330,000; active means well fitted inhibition curve with a large enough effect; inconclusive means small, poorly fitted or top-dose-only effect; inactive means no such curve, though single readings can be large or run the other way; tested in A549 cells; further: nearly all actives have a fitted effect of over 30% in size; inactives centre near -10
VACV mCherry inh: qHTS for Stage-Specific Inhibitors of Vaccinia Orthopoxvirus: mCherry Reporter Primary qHTS. Vaccinia virus mCherry reporter infection, fluorescence; about a quarter of the inactives have no number. Potency, µM (titrated, usually from 36.5 µM), for inactives: at the highest dose activity change, negative = inhibition, usual class: inhibitors. hit rate 0.63% among 310,000; active = well fitted inhibition curve with a large enough effect; inconclusive = small, poorly fitted or top-dose-only effect; inactive = no such curve, though single readings can be large or run the other way; tested in A549 cells; further: nearly all actives have a fitted effect of over 35% in size; inactives centre near -10
The depositor's hits bear a star; i = inactive; ? = inconclusive; . = not tested or not shown. On the % scale 0 is the no-effect control and ±100 the full control effect; potency means the concentration at half of the fitted maximal effect.

cpd	smiles	VACV Venus inh	VACV mCherry inh
1	O=C(Nc1ccc2c(c1)CCC2)Nc1ccccc1Cl	-11.9%	-11.9%
2	CC(=O)c1ccc(NC(=O)C(C)OC(=O)CCN=C2NS(=O)(=O)c3ccccc32)cc1 (centres undefined)	-10.2%	-15.7%
3	CCS(=O)(=O)c1ncc(N(Cc2cccc(F)c2)Cc2ccco2)c(C(=O)Nc2ccccc2Cl)n1	-5.7%	-9.7%
4	O=C1CC(C(=O)O)C2(CCCC2)O1 (centres undefined)	-5.1%	-10.4%
5	Cc1csc(NC(=O)CN2CCCCCC2)n1	-14.9%	-2.1%
6	COc1ccc(NC(=O)CCNC(=O)c2ccco2)cc1S(=O)(=O)N(C)C	4.1%	15.8%
7	COc1ccc(S(=O)(=O)N(CCc2ccccc2)CC(=O)Nc2ccc(C)c(C)c2)cc1OC	-15.6%	-15.8%
8	O=C(Cc1cccc(NC(=O)C2CCCN(C(=O)C3CC3)C2)c1)Nc1ccc(C(=O)N2CCCCC2)cc1 (centres undefined)	-10.8%	i
9	CCN(CC)C(=O)N[C@H]1C[C@@H]2c3cccc4[nH]cc(c34)C[C@H]2N(C)C1	-5.9%	i
10	CC(C)CCNC(=O)C1CC(c2ccc(C(F)(F)F)cc2)=NO1 (centres undefined)	-13.1%	-32.9%
11	Cc1ccc(-c2cc(C(=O)Nc3c(C(=O)c4ccccc4)oc4ccccc34)no2)cc1F	-2.4%	-10.3%
12	Cc1nn(-c2ccccc2)c(C)c1[N+](=O)[O-]	-13.7%	i
13	CN(C)c1ccc(-c2ccnc3c2CC(C)(C(=O)NCC2CC2)O3)cc1 (centres undefined)	-18.6%	-24.9%
14	CC12CCC(C(=NO)C1=O)C2(C)C (centres undefined)	-0.8%	-12.7%
15	CC1(C)CC(=O)C(C=Nc2ccc3c(c2)OCO3)=C(O)C1	-6.3%	-0.3%
16	CNC(=S)N/N=C1\C2CN3CCN(C2)CC1(c1ccccc1)C3	-5.9%	-8.0%
17	Clc1nc(NCCc2ccccc2)c2cn[nH]c2n1	-27.3%	-10.3%
18	CN(CC(=O)NCC1CCCO1)S(=O)(=O)c1ccc2ccccc2c1 (centres undefined)	-11.6%	i
19	Cc1cnc(C(=O)Nc2ccc(N3CCCCC3)cc2)cn1	-18.4%	i
20	CC(C)(C)OC(=O)NCCCCCNC(=O)c1[nH]cnc1C(=O)Nc1cc(Br)ccc1F	?	-16.8%
21	O=C([C@H](O)c1ccccc1)N1CCC[C@H]1CO	-4.0%	-8.4%
22	CC(=O)c1c(C)oc2ccc(NS(=O)(=O)c3ccc(O)c(C(=O)O)c3)cc12	4.0%	.
23	Nc1ccn(CC(=O)N[C@H](CO)Cc2c[nH]c3ccccc23)c(=O)n1	-1.4%	-20.9%
24	NNC(=O)c1cc2ccccc2[nH]1	-20.5%	-27.1%
25	Fc1cccc(/C=N/NC(=S)Nc2ccccc2Cl)c1	-13.9%	-16.7%
26	CSc1cccc(NC(=O)CSc2ccc(Cl)cc2)c1	-14.4%	-18.0%
27	COc1ccc(-c2cc(C(=O)Nc3ccc(Cl)cc3Cl)c3ccccc3n2)cc1OC	-18.8%	-12.8%
28	Cc1ccc(Nc2ncc(C(=O)N3CCN(c4ccc(F)cc4)CC3)c3ccccc23)cc1Cl	-18.7%	-22.9%
29	CN(C)CCCN=Cc1c(O)n(Cc2ccccc2)c(=O)c2ccccc12	-23.3%	.
30	COc1ccc(NC(=S)NC(=O)c2cncc(Br)c2)c(OC)c1	5.2%	-3.4%
31	COC(=O)c1ccc(NC(=O)C2CC2)o1	-7.5%	i
32	CCN(C(=O)c1cccnc1)c1ccccc1	2.9%	-5.5%

4 of the compounds above, field by field:
31) COC(=O)c1ccc(NC(=O)C2CC2)o1
  VACV Venus inh = -7.5%; VACV mCherry inh = i

28) Cc1ccc(Nc2ncc(C(=O)N3CCN(c4ccc(F)cc4)CC3)c3ccccc23)cc1Cl
  VACV Venus inh = -18.7%; VACV mCherry inh = -22.9%

27) COc1ccc(-c2cc(C(=O)Nc3ccc(Cl)cc3Cl)c3ccccc3n2)cc1OC
  VACV Venus inh = -18.8%; VACV mCherry inh = -12.8%

25) Fc1cccc(/C=N/NC(=S)Nc2ccccc2Cl)c1
  VACV Venus inh = -13.9%; VACV mCherry inh = -16.7%

Pulled one by one from the entries so far (two):
cpd	smiles	VACV Venus inh	VACV mCherry inh
25	Fc1cccc(/C=N/NC(=S)Nc2ccccc2Cl)c1	-13.9%	-16.7%
29	CN(C)CCCN=Cc1c(O)n(Cc2ccccc2)c(=O)c2ccccc12	-23.3%	.

The listing continues.
cpd	smiles	VACV Venus inh	VACV mCherry inh
33	COC(=O)C1=C(c2ccccc2)c2ccccc2S(=O)(=O)N1CC(=O)Nc1cc(C)ccc1C	-9.8%	-14.3%
34	CCC1C(=O)NCCN1Cc1ccc2c(c1)CN(Cc1cccn1-c1ccc(Cl)cn1)CCO2 (centres undefined)	-4.3%	-19.8%
35	CCNc1nc(NC(C)(C)C)nc(N2CCCC2)n1	-25.7%	-13.3%
36	COc1cccc(NC(=O)Nc2nnc(COCCO)s2)c1	-6.5%	3.3%
37	COCCOC(=O)c1c(N)n(Cc2ccccc2)c2nc3ccccc3nc12	-24.1%	-9.5%
38	N#Cc1ccc(CSc2nc3c(c(=O)[nH]2)CCCC3)cc1	0.0%	-8.3%
39	COCCCN1C(=O)C(O)=C(C(=O)c2ccc(C)o2)C1c1cccc(Br)c1 (centres undefined)	-16.9%	-11.8%
40	COCCn1c(SCC(=O)c2c[nH]c3ccccc23)nnc1-c1ccncc1	-6.5%	-7.1%

Reformatted: results already given
[15] CC1(C)CC(=O)C(C=Nc2ccc3c(c2)OCO3)=C(O)C1
  VACV Venus inh: -6.3%	VACV mCherry inh: -0.3%

[39] COCCCN1C(=O)C(O)=C(C(=O)c2ccc(C)o2)C1c1cccc(Br)c1 (centres undefined)
  VACV Venus inh: -16.9%	VACV mCherry inh: -11.8%

The list continues:
cpd	smiles	VACV Venus inh	VACV mCherry inh
41	COC(=O)c1sccc1NC(=O)c1ccccc1	-6.3%	-9.3%
42	COc1ccc(C(C(=O)NCc2ccccc2)N(C(=O)Cn2nnc3ccccc32)c2cccc(OC)c2)cc1 (centres undefined)	-17.2%	-15.4%
43	CC1CCN(S(=O)(=O)c2cc(C(=O)NCc3ccc(F)cc3)n(C)c2)CC1	-16.8%	-17.1%
44	O=C1CCC(C(=O)N(CCO)Cc2ccccc2)CN1CC1CCCCC1 (centres undefined)	-12.7%	i
45	CO/N=C/c1ccc(Sc2ccc(C)cc2)c([N+](=O)[O-])c1	-11.9%	.
46	COC(=O)C(CC(C)C)NC(=O)c1cccs1 (centres undefined)	-14.5%	i
47	O=C(CN1C(=O)C2CCCCC2C1=O)N1CCN(c2ccc(F)cc2)CC1 (centres undefined)	4.9%	-3.4%
48	C=CCn1c(N2CCOCC2)nc2c1c(=O)[nH]c(=O)n2C	-1.1%	6.7%
49	Cc1cccc2nc(CSc3nc4[nH]ncc4c(=O)n3-c3ccccc3Cl)cc(=O)n12	?	?
50	O=C(COc1ccc2ccc(=O)oc2c1)NCCN1CCOCC1	-5.8%	-2.0%
51	CCc1nc2c(OCC(=O)N3CCOCC3)cccn2c1N(C=O)Cc1ccccc1	8.5%	i
52	O=C(OC(C(=O)NCc1cccs1)c1ccccn1)c1cccs1 (centres undefined)	2.5%	-4.3%
53	CCOc1ccc(NC(=O)c2c(NC(=O)c3ccccc3F)sc3c2CCC3)cc1	-18.8%	i
54	CC(C)(C)NC(=O)C(=O)NNC(=O)c1ccccc1Br	-12.1%	-0.5%
55	Oc1ccc(Br)c(CN2CCN(c3ncc(Cc4ccccc4)cn3)CC2)c1	?	?
56	Cc1ccc(S(=O)(=O)Nc2ccc(SC(F)F)cc2)c(C)c1	?	-11.6%
57	CCC1CCC/C1=N\NC(=O)c1cc(C)[nH]n1 (centres undefined)	-11.3%	i
58	Cc1ccc(S(=O)(=O)N(CC(=O)Nc2cccnc2)c2cccc([N+](=O)[O-])c2)cc1	?	-17.6%
59	CCN(C[C@H]1N[C@@](CC)(C(=O)OC)[C@H]2C(=O)N(C)C(=O)[C@@H]12)S(=O)(=O)c1ccc(C)cc1	-9.8%	i
60	NC(CSCc1ccccc1)C(=O)Nc1ccc([N+](=O)[O-])cc1 (centres undefined)	-9.0%	-15.4%
61	CCCN1CCc2nc(N3CCN(C)CC3)ncc2C1	-4.2%	-1.2%
62	COc1cc(OC)cc(C(=O)OCC(=O)N(C)c2ccccc2)c1	1.7%	-9.0%
63	N#Cc1ccccc1/C=N/Nc1nc(-c2ccccc2)c2cc(Cl)ccc2n1	-8.1%	-15.5%
64	O=[N+]([O-])c1cc(C(F)(F)F)ccc1NCCCN1CCOCC1	-0.1%	-1.3%
65	C=CCNC(=O)c1onc(CSc2cc(C)cc(C)c2)c1C(=O)NCC=C	.	3.16µM*
66	C/C(=N\NC(=O)COc1ccc(C)cc1C(C)C)c1ccc(-n2ccnc2)cc1	-25.4%	-22.3%

Some of these compounds in order of length of the SMILES, low to high.
cpd	smiles	VACV Venus inh	VACV mCherry inh
41	COC(=O)c1sccc1NC(=O)c1ccccc1	-6.3%	-9.3%
19	Cc1cnc(C(=O)Nc2ccc(N3CCCCC3)cc2)cn1	-18.4%	i
59	CCN(C[C@H]1N[C@@](CC)(C(=O)OC)[C@H]2C(=O)N(C)C(=O)[C@@H]12)S(=O)(=O)c1ccc(C)cc1	-9.8%	i

Rows were taken by chance; overall some 0.87% were active at least once.
